PKD1 kinase inh = PKD1 (human) kinase inhibition | Q15139 | 200,000 tested, 0.056% active | inhibition, %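 (about 10 µM by stock and volumes)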 | PKD1 kinase fluorescence polarization assay | AID 797;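 active means inhibition of 50% or more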;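 further: controls were vehicle for no effect and a reference inhibitor for full effect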
HSV replic up = HSV replication enhancement | 220,000 tested, 0.005% active | maximum fold increase | HSV replication augmentation in cells, fold increase;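 active means peak rise of 1.5-fold or more in the series; tested in PC3 cells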;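 further: first round at 10 µM; read as green reporter fluorescence; hits show the peak of a series up to 25 µM; 1 = signal of infected wells without compound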
Insulin prom inh = TRM-6 insulin promoter activity inhibition; inhibition, % at 2 µM; 130,000 tested, 0.9% active; AID 1273; TRM-6 cells (human fetal islet line), insulin promoter-eGFP reporter, imaging; reporter expression induced with tamoxifen;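 active means inhibition above the mean plus 3 SD, with well images judged a real hit on visual review, cut at about 60% in these data, passing the limit was not always enough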
RGS16-Gao = RGS16-Galphao interaction regulator (human). O15492+P09471. bead-based flow cytometry RGS16-Galphao binding, fluorescence; actives lie on both sides. binding response (% of control), % at 10 µM. 220,000 tested, 0.38% active. AID 1441;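 active means below 25% or above 175%, edge rows of some plates excepted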;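 further: Galphao activated by GDP with aluminum fluoride before binding; 100% = wells without compound and 0% = beads without RGS; some results beyond the cut were filed as inactive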
Target sequence (O15492 whole entry, looked up): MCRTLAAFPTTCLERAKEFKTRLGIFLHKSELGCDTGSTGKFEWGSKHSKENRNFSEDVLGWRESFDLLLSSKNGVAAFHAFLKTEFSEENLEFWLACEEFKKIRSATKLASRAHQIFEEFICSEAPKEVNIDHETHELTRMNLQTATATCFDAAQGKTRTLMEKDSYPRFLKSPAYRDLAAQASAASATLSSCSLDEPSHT
Target sequence (P09471 whole entry, looked up): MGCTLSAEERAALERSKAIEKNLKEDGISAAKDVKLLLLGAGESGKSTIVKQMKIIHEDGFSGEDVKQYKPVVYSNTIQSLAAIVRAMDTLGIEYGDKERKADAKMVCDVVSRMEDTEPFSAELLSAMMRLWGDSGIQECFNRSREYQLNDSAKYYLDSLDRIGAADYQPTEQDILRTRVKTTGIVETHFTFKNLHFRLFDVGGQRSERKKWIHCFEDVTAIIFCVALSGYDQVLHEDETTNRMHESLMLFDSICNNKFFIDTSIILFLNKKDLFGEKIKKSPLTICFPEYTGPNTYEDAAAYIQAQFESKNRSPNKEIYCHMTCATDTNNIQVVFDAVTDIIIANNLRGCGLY
GALR2 ag = GALR2 (human) receptor agonism | GALR2-expressing cells, agonist activation read-out | activation, %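 (tested at 5 µM)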 | 140,000 tested, 0.48% active;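 active means above mean plus 3 SD of all compounds, about 5% in these data, not always enough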;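 further: 0% = vehicle buffer wells and 100% = reference agonist at full effect; tested in CHO reporter cells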
Target sequence (O43603 whole entry, looked up): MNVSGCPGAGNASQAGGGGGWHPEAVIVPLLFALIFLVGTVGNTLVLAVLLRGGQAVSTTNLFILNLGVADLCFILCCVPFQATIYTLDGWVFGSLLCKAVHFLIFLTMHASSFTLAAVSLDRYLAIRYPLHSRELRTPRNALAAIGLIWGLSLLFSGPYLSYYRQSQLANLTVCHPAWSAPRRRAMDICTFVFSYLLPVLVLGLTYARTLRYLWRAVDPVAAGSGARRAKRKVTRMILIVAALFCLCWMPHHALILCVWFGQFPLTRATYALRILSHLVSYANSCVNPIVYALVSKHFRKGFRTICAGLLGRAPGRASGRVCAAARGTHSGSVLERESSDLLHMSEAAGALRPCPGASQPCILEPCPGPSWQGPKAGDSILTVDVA
Insulin prom inh cell count = also measured in Insulin prom inh; calls as there; normalized cell count, %; measured here: cell count, toxicity; reference of the scale not given here;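 cells exposed to compound for 48 h; stained nuclei by imaging scaled within each plate; lower means fewer cells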
HSV replic up primary fold = recorded beside HSV replic up, whose call it bears; fold increase; compound at 10 µM; measured here: primary screen fold increase 10 uM; tested in PC3 cells;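 GFP signal in the first replicate; 1 = infected wells without compound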
Numbers without * were called inactive; i = inactive; x = no result given. Outcome played no part in choosing rows; about 1.2% have a hit in one of these screens.

item	SMILES	PKD1 kinase inh	HSV replic up	HSV replic up primary fold	Insulin prom inh
1	CN(c1ccccc1C(=O)N1CCN(c2ccccc2)CC1)S(C)(=O)=O	-5	i	1	33
2	Cc1ccc(S(=O)(=O)N2CCOCC2)c(C)c1NS(C)(=O)=O	-18	i	0.89	0
3	Cc1cc(=O)n2[nH]c(=O)c(N=Nc3ccccc3)c2[nH]1	7	i	1	-39
4	O=C1/C(=C/c2ccccn2)SC(=S)N1N1CCOCC1	x	i	0.97	x
5	COc1cccc(C(=O)Nc2nnc(-c3ccc(Cl)cc3)o2)c1	x	i	0.92	x
6	c1ccc(COc2ccc(OCCN3CCCC3)cc2)cc1	-3	x	x	-23
7	CC(C)NC(=O)NC(=O)COC(=O)/C=C/c1ccc2c(c1)OCO2	x	i	0.78	x
8	CCOC(=O)Cn1c(=O)oc2cc(S(=O)(=O)N(CCN(C)C)Cc3ccccc3)ccc21	7	i	0.89	x

item	Insulin prom inh cell count	RGS16-Gao	GALR2 ag
1	104	112	-1.9
2	134	105	-0.1
3	80	100	-1.5
4	x	97	x
5	x	93	x
6	107	103	-2.2
7	x	106	x
8	x	107	-0.4

More compounds follow.
item	SMILES	PKD1 kinase inh	HSV replic up	HSV replic up primary fold	Insulin prom inh
9	CCc1nn2cc(-c3ccccc3)nc2s1	-20	i	0.87	-27
10	Oc1ccc(-c2nc3ccccn3c2NCc2ccco2)cc1	0	i	1.1	12
11	Cc1cc(C)n(-c2ccc(C(=O)OCC(=O)Nc3ccc(Cl)c(S(=O)(=O)N(C)C)c3)cc2)n1	-2	i	0.81	-57
12	CC(C)CNC(CC(=O)O)c1ccccc1 (stereo not given)	0	i	1	x
13	FC(F)C(F)(F)c1cc(-c2ccc(Cl)cc2)n[nH]1	x	i	0.91	x
14	CC1=[N+](C)N(c2ccccc2)C(=O)C1N=Cc1ccccc1Cl (stereo not given)	-6	i	0.94	-17
15	Cc1cccc(NC(=O)CCN2CC(C)OC(C)C2)c1 (stereo not given)	-7	i	0.87	-45
16	CCNC(=S)N1CCn2cccc2C1c1ccc(F)cc1 (stereo not given)	-2	i	0.99	-158

item	Insulin prom inh cell count	RGS16-Gao	GALR2 ag
9	87	100	-1.4
10	87	97	-1.4
11	128	105	-1.9
12	x	94	x
13	x	108	x
14	102	100	-0.5
15	114	105	-0.7
16	102	103	x

Continuation.
item	SMILES	PKD1 kinase inh	HSV replic up	HSV replic up primary fold	Insulin prom inh
17	C/C(=N\NC(=O)Cc1c[nH]c2ccccc12)c1ccc2ccccc2c1	0	i	0.86	x
18	CCOC(=O)c1cccc(NC(=O)CCc2nc(-c3ccc(C)cc3)no2)c1	-2	i	0.9	17
19	O=C(CSc1nc(-c2ccccc2)nc2c1Cc1ccccc1O2)Nc1ccc(C(=O)O)cc1	0	i	1	x
20	Cc1ccc(S(=O)(=O)N(CCCN2CCCC2=O)Cc2cc3c(C)ccc(C)c3[nH]c2=O)cc1	-6	i	0.77	10
21	CCOc1ccc(C2Nc3cccc4cccc(c34)N2)cc1OC	-9	i	0.96	7
22	Cc1ccccc1NC(=O)/C(C#N)=C\c1cccnc1	-5	i	0.89	26
23	COC(=O)C(O)(CC(=O)Nc1cc(Cl)ccc1Cl)C(F)(F)F (stereo not given)	-4	i	0.99	48
24	COc1ccc(-n2c(SCC(=O)NC3CCCCC3)nc3ccsc3c2=O)cc1	-1	i	0.96	-3

item	Insulin prom inh cell count	RGS16-Gao	GALR2 ag
17	x	98	x
18	111	107	-2.0
19	x	100	x
20	121	98	-1.5
21	146	89	-1.8
22	88	100	-2.1
23	89	99	-3.0
24	144	101	-0.7

More entries follow.
item	SMILES	PKD1 kinase inh	HSV replic up	HSV replic up primary fold	Insulin prom inh
25	Cc1nn(Cc2ccccc2)c(C)c1NC(=O)c1noc2c1CCc1ccccc1-2	-12	i	0.99	x
26	CC(C)c1cc(CN2CCN(Cc3ccc(F)c(F)c3)C(CCO)C2)[nH]n1 (stereo not given)	-4	i	1	33
27	COc1ccc(NC(=O)C2(c3ccc(NC(=O)c4ccc(C)cc4)cc3)CCCC2)cc1	-3	i	1	-7
28	CCC1Oc2ccc(C)cc2N(CC(=O)NCc2cccs2)C1=O (stereo not given)	-7	i	1	x
29	CCOC(=O)c1sc(N)c(C(N)=O)c1C	0	i	0.99	-100
30	CC1CN(Cc2cc(=O)[nH]c(C3CC3)n2)CC(C)O1 (stereo not given)	3	i	0.85	4
31	CN1CCN(NC(=O)c2cccc(Br)c2)CC1	-5	i	0.96	-15
32	CCC1=C2CC[C@H]3C(=O)NC(=O)[C@H]3[C@H]2[C@@]2(Cc3ccccc3)C(=NCC(=O)OC)OC(=O)N2C1=O	x	i	0.76	x

item	Insulin prom inh cell count	RGS16-Gao	GALR2 ag
25	x	88	-1.5
26	182	100	x
27	127	93	-2.2
28	x	98	x
29	42	105	x
30	96	99	0.6
31	121	105	-0.7
32	x	84	x

Laid out differently: entries from further up.
Screens in order: PKD1 kinase inh	HSV replic up	HSV replic up primary fold	Insulin prom inh	Insulin prom inh cell count	RGS16-Gao	GALR2 ag
#26 CC(C)c1cc(CN2CCN(Cc3ccc(F)c(F)c3)C(CCO)C2)[nH]n1 (stereo not given)
 : -4	i	1	33	182	100	x
#27 COc1ccc(NC(=O)C2(c3ccc(NC(=O)c4ccc(C)cc4)cc3)CCCC2)cc1
 : -3	i	1	-7	127	93	-2.2
#28 CCC1Oc2ccc(C)cc2N(CC(=O)NCc2cccs2)C1=O (stereo not given)
 : -7	i	1	x	x	98	x
#29 CCOC(=O)c1sc(N)c(C(N)=O)c1C
 : 0	i	0.99	-100	42	105	x
#30 CC1CN(Cc2cc(=O)[nH]c(C3CC3)n2)CC(C)O1 (stereo not given)
 : 3	i	0.85	4	96	99	0.6
#31 CN1CCN(NC(=O)c2cccc(Br)c2)CC1
 : -5	i	0.96	-15	121	105	-0.7

More compounds
item	SMILES	PKD1 kinase inh	HSV replic up	HSV replic up primary fold	Insulin prom inh
33	CC(=O)Nc1ccc(NC(=O)Cn2c(-c3ccc(F)cc3)cnc2SCC(=O)Nc2c(C)cccc2C)cc1	-5	i	0.85	-22
34	COC(=O)c1ccccc1NC(=O)N1CCN(Cc2ccco2)CC1	-10	i	0.94	-29
35	CCOC(=O)c1ccc(Nc2cc(C)nc(-c3ccccc3O)n2)cc1	10	i	0.9	-4
36	CCC1=C(OC(=O)N(CC)CC)N2C(=O)OC(=NCC(=O)OC)[C@]2(Cc2ccccc2)[C@H]2C1=CC[C@H]1C(=O)N(CC(=O)OC)C(=O)[C@H]12	x	i	1.1	x
37	COc1ccc(NC(=O)CCS(=O)(=O)c2ccc(OC)cc2)cc1	0	i	0.86	23
38	C/C(=N/OC(=O)C1CC1c1ccccc1)c1ccccc1 (stereo not given)	-1	i	0.62	-7
39	Cc1ccc(-c2nc(CSc3nc4ccccc4c(=O)n3C)cs2)cc1	-3	i	1.1	-21
40	CCCNS(=O)(=O)c1ccc(OC)c(Cl)c1Cl	-4	i	0.96	-32

item	Insulin prom inh cell count	RGS16-Gao	GALR2 ag
33	70	99	-1.7
34	108	104	x
35	126	103	-0.7
36	x	98	x
37	83	94	0.5
38	98	95	x
39	147	106	1.1
40	119	111	-0.6

More records follow:
item	SMILES	PKD1 kinase inh	HSV replic up	HSV replic up primary fold	Insulin prom inh
41	COc1cc(C(=O)O)cc(NC(=O)c2ccco2)c1OC	x	i	1.3	x
42	Cc1ccnc(SCC(=O)N2CCN(C(c3ccccc3)c3ccccc3)CC2)n1	-4	i	0.96	-15
43	Cc1cc(C)n(-c2ccc(N3CCOCC3)nn2)n1	-9	i	0.95	15
44	CCn1c(=O)cc(OCC(=O)NC2CCCCC2)c2ccccc21	-1	i	0.99	28
45	COc1ccc(N=Cc2ccc[nH]2)cc1	-5	i	0.64	-126
46	O=C1N=C(N2CCN(c3ccccc3)CC2)S/C1=C\c1ccco1	3	i	0.97	x
47	Cc1nnc(NC(=O)CSc2nnc(-c3ccoc3C)n2CC(C)C)s1	-7	i	0.87	x
48	COc1ccc(C(=O)Cn2c3ccccc3n3nc(CCC(=O)O)c(=O)nc23)cc1OC	3	i	1.1	36

item	Insulin prom inh cell count	RGS16-Gao	GALR2 ag
41	x	97	x
42	103	114	-0.9
43	106	104	-0.5
44	55	105	1.4
45	33	112	-0.5
46	x	110	x
47	x	102	-0.8
48	148	95	0.0

Next part
item	SMILES	PKD1 kinase inh	HSV replic up	HSV replic up primary fold	Insulin prom inh
49	COc1ccc(S(=O)(=O)N2CCN(C(=O)c3cccc(Cl)c3)CC2)cc1	0	i	1	-62
50	O=C(CSc1nc2ccccc2c(=O)n1NC(=O)Cc1ccccc1)NCc1ccccc1Cl	-1	i	0.81	-30
51	COc1ccccc1C(NC(=O)C1CCCCC1)c1c(O)ccc2ccccc12 (stereo not given)	-13	i	0.89	-27
52	O=C(Oc1ccc(Cl)cc1N1C(=O)CCC1=O)c1ccco1	-4	i	0.93	-17
53	CCCCSc1nnc(C)c(=O)[nH]1	5	i	0.84	18
54	CCOc1c(OC)cccc1C1CC(=O)Nc2cc(OC)c(OC)cc21 (stereo not given)	8	i	0.9	x
55	CN(C)c1ccc(P(=O)(OCc2ccccc2)C(O)c2ccc(Br)cc2)cc1 (stereo not given)	x	i	0.97	x
56	CCc1ccc2c(c1)cc(CN(C(=S)Nc1ccccc1Cl)C1CC1)c1nnnn12	-7	i	1.2	x

item	Insulin prom inh cell count	RGS16-Gao	GALR2 ag
49	110	98	-1.9
50	165	102	-0.3
51	65	103	-1.6
52	89	96	-1.2
53	119	101	-1.1
54	x	94	0.9
55	x	99	x
56	x	103	-0.2

Additional compounds.
item	SMILES	PKD1 kinase inh	HSV replic up	HSV replic up primary fold	Insulin prom inh
57	C/C(=N\NC(=O)CCn1nc(C)cc1C)C(C)(C)C	4	i	1	-11
58	COc1cc2ccccc2cc1C(=O)Nc1ccc(S(=O)(=O)Nc2cc(C)on2)cc1	4	i	0.94	-18
59	O=C(Nc1cccc(C(=O)N2CCCCCC2)c1)c1ccco1	0	i	0.91	-8
60	Cc1nn(Cc2ccccc2Cl)c(C)c1C(=O)N1CCN(c2ccccc2)CC1	18	i	0.86	0
61	CC(C)NC(=O)NC(=O)COC(=O)c1ccccc1F	5	i	1.2	x
62	CN=c1sc(C(=O)Nc2cccc(Cl)c2)cc(=O)n1C	-1	i	0.81	-53
63	c1ccc2ncc(-n3cnnn3)cc2c1	-15	i	0.89	21
64	CC1(C)CC(=O)C2=C(C1)N(Cc1ccccc1)C(=O)C2(NC(=O)C(C)(C)C)C(F)(F)F (stereo not given)	-9	i	0.89	-6

item	Insulin prom inh cell count	RGS16-Gao	GALR2 ag
57	78	62	-0.1
58	102	107	1.4
59	88	93	-1.9
60	170	103	-1.2
61	x	101	0.0
62	99	90	-0.2
63	179	102	-0.6
64	211	79	-2.3

Going on with the list.
item	SMILES	PKD1 kinase inh	HSV replic up	HSV replic up primary fold	Insulin prom inh
65	O=C(Nc1ccc(Cl)c(Cl)c1)N1N=CCC1c1ccccc1 (stereo not given)	7	i	0.91	-20
66	Fc1ccccc1CSc1nc2ccccc2[nH]1	-2	x	x	74*
67	CCS(=O)(=O)N1CCN(c2ccc(C(=O)NC34CC5CC(CC(C5)C3)C4)cc2[N+](=O)[O-])CC1	11	i	0.95	0
68	Cc1ccc2c(c1)NC(c1cccs1)C1=C(CC(C)(C)CC1=O)N2 (stereo not given)	-1	i	1.2	-424
69	Cc1cc(C)nc(SCC(=O)NCc2ccco2)n1	-3	i	1	-63
70	CCN(CC)c1ccc(C(=O)OCC(=O)Nc2ccccc2-c2ccccc2)cc1	7	i	1	47
71	CCOC(=O)N/N=C/C=C/c1ccccc1[N+](=O)[O-]	0	i	0.87	x

item	Insulin prom inh cell count	RGS16-Gao	GALR2 ag
65	107	103	x
66	129*	74	-2.6
67	84	35	-0.8
68	15	102	x
69	94	98	-0.1
70	105	106	-0.2
71	x	99	x

From PubChem
